A647 autofl – compound autofluorescence in A647 spectral region; Compound fluorescence, A647 channel (570/671 nm), Tris buffer; max dye-equivalent concentration, M; 59,000 tested, under 10 active; active means above 1 µM dye equivalent; inconclusive means 0.1 to 1 µM; inactive means 0.1 µM or less;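 note: values scaled relative to a standard on each plate; highest value over a series up to 38 µM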
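Compound fluorescence was measured in 100 mM Tris buffer, pH 8.0, after 15 min at room temperature, using 570 nm excitation and 671 nm emission filters. Signal was normalized to a per-plate Alexa 647 standard curve and expressed as dye-equivalent concentration at each compound concentration.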
A488 autofl – compound fluoresces in the A488 spectral region; compound autofluorescence, A488 spectral region, dye equivalency; hits give high values; max dye equivalency, M; 0.1% of 59,000 active; AID 591; active = above 10 nM dye equivalent; inconclusive = 1 to 10 nM; inactive = 1 nM or less; about half of its hits are not listed in these tables;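 note: highest value over a series up to 38 µM; compound alone in buffer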
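Intrinsic compound fluorescence is measured in 100 mM Tris buffer at pH 8.0 following 15 min incubation at room temperature. Intensities at 480 nm excitation/540 nm emission are calibrated to an on-plate A488 concentration series, giving dye-equivalent concentrations.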
Resorufin fluor – resorufin region autofluorescence; Compound fluorescence, resorufin region 547/598 nm, buffer; hits give high values; max dye-equivalent concentration, M; 0.04% of 59,000 active; active = above 10 nM dye equivalent; inconclusive = 1 to 10 nM; inactive = 1 nM or less; a few of its hits are not listed in these tables; note: highest value over a series up to 38 µM
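Compounds in 100 mM Tris buffer, pH 8.0, incubated 15 min at room temperature, then read with 547 nm excitation and 598 nm emission filters. Fluorescence was converted to dye-equivalent concentration using an on-plate six-point resorufin standard curve.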
AID923 – qHTS Assay for Allosteric/Competitive Inhibitors of Caspase-1: Spectroscopic Profiling in AFC Spectral Region; 1.1% of 75,000 active; compound fluorescence, AFC spectral region (405/520 nm); almost no hit is shown here; Potency, µM (top dose mostly 57.5 µM), without a hit: at the top dose fluorescence increase, usual class: activators; active = well fitted activation curve with a large enough effect; inconclusive = small, poorly fitted or top-dose-only effect;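 note: potency is the fitted concentration of half-maximal effect; 0% is about no effect; scaled to a free AFC standard on each plate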
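Baseline compound fluorescence (AFC region, 405 nm ex/520 nm em) taken from the intercept of kinetic reads with 50 nM caspase-1 and 5 uM Ac-WEHD-AFC; normalized to an on-plate AFC standard curve; compounds titrated up to 57 uM.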
TSHR agonist – activates the human thyroid stimulating hormone receptor. HEK293-CNG-TSHR cells (CNG channel as cAMP sensor), membrane potential dye, cAMP. P16473. 0.48% of 73,000 active. Potency, µM (highest dose often 57.1 µM), for the others: at the highest dose activation, actives largely listed as activators. AID 926; active = well fitted activation curve of enough size with the parental cells flat; inconclusive = any curve in the parental cells; inactive = parental cells flat and receptor cells flat or falling; note: potency is the fitted concentration of half-maximal effect; % of control where 0% means no effect; weak receptor curves with flat parental cells got no call and are not listed
Target sequence (P16473 whole entry, looked up): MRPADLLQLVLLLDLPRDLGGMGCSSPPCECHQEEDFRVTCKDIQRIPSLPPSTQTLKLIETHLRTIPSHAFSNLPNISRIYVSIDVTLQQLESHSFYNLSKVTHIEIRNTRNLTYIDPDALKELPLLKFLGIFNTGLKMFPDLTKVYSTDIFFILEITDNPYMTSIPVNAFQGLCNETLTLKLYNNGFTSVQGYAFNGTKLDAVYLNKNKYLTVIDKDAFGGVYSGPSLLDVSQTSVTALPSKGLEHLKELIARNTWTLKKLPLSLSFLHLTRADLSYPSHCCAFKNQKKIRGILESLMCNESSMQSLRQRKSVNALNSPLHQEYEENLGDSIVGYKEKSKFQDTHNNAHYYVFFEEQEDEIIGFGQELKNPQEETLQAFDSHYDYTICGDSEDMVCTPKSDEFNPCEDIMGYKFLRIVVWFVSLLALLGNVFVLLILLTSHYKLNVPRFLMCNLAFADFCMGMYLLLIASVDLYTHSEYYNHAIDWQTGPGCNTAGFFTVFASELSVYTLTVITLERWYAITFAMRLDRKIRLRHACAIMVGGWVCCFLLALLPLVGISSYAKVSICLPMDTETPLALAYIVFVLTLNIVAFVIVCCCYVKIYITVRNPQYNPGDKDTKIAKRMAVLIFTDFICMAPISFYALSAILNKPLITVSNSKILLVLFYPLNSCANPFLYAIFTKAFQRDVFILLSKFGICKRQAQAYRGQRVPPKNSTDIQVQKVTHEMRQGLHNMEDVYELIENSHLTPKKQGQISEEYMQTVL
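cAMP rise detected as CNG-channel membrane depolarization by fluorescent dye (emission 590 nm), 30 min after compound, following 60 min dye loading containing 100 uM RO 20-1724 at room temperature. Cells: TSHR/CNG HEK 293, with parental CNG HEK 293 as control.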
The depositor's hits bear a star; i = inactive; ? = inconclusive; · = not tested or not shown; [ ] = another dose, or the depositor's remark.

SMILES	A647 autofl	A488 autofl	Resorufin fluor	AID923	TSHR agonist
Clc1ccc(OCc2nn3c(-c4ccccc4)nnc3s2)c(Cl)c1	1.52e-08	i	i	-2.0%	?
COC(=O)CN(Cc1ccccc1)S(=O)(=O)c1ccc(OC)c(OC)c1	·	·	·	4.3%	4.9%
COc1ccc(OC)c(S(=O)(=O)NCc2csc(-c3ccccc3)n2)c1	1.8e-09	i	i	-1.8%	0.0%[11.4 µM]
O=C(O)c1ccc(NS(=O)(=O)c2cccc3nsnc23)cc1	8.7e-09	i	i	-1.4%	-10.1%
CCCS(=O)(=O)N1CCCC(C(=O)NCCCN2CCN(c3cccc(Cl)c3)CC2)C1 (configuration not stated)	1.45e-08	i	i	1.0%	9.9%
COCCCNC(=O)CN(c1ccc(Cl)c(Cl)c1)S(C)(=O)=O	·	·	·	4.9%	0.5%
CCCCOc1ccc(-c2ncc(Cl)cn2)cc1	·	·	·	-1.0%	-5.4%[11.4 µM]
O=C(NC1CCCCC1)C1CCCN1S(=O)(=O)c1cccc2nsnc12 (configuration not stated)	3.05e-08	i	i	-0.7%	3.8%[11.4 µM]
Cc1ccc2[nH]c3c(c2c1)CN(C(=O)CN1CC(C)OC(C)C1)CC3 (configuration not stated)	8.89e-08	i	i	·	·
NS(=O)(=O)c1ccc(NS(=O)(=O)c2cccs2)cc1	1.9e-09	i	i	0.9%	-6.5%
O=C(c1ccc(Cn2cc(Br)cn2)cc1)N1CCN(c2ccccc2)CC1	1e-09	i	i	1.1%	-0.1%
N#CCCCSc1nnc(-c2ccccn2)o1	1.8e-08	i	i	-1.1%	-8.1%
COc1cccc(-n2c(=O)[nH]cc(C(=O)Nc3ccc4c(c3)OCCO4)c2=O)c1	·	·	·	-1.7%	0.8%
O=C(COC(=O)c1cccnc1)c1ccc(Cl)cc1	1e-09	i	i	-0.5%	1.4%
COc1cc2cc(CN(CCCO)S(=O)(=O)c3ccccc3Cl)c(=O)[nH]c2cc1OC	2.16e-08	i	i	5.3%	-3.4%
FC(F)(F)c1cccc(N2CCN(c3ccc4nnc(-c5ccccc5)n4n3)CC2)c1	·	·	·	-0.9%	6.8%
CCC(C)NC(=O)C1CCN(S(=O)(=O)c2cccc3cccnc23)CC1 (configuration not stated)	·	·	·	1.3%	-4.3%
COc1ccccc1N1CCN(CCN2C(=O)c3ccccc3C(C)(C)C2=O)CC1	·	·	·	0.3%	?
CCOC(=O)c1cnc(SCC(=O)c2ccccc2)nc1N	·	·	·	-0.7%	20.2%
O=C(O)CN1C(=O)C2(OCCCO2)c2ccccc21	1e-09	i	i	0.5%	12.3%

A stretch of the results above:
SMILES	A647 autofl	A488 autofl	Resorufin fluor	AID923	TSHR agonist
CCC(C)NC(=O)C1CCN(S(=O)(=O)c2cccc3cccnc23)CC1 (configuration not stated)	·	·	·	1.3%	-4.3%
COc1ccccc1N1CCN(CCN2C(=O)c3ccccc3C(C)(C)C2=O)CC1	·	·	·	0.3%	?
CCOC(=O)c1cnc(SCC(=O)c2ccccc2)nc1N	·	·	·	-0.7%	20.2%
O=C(O)CN1C(=O)C2(OCCCO2)c2ccccc21	1e-09	i	i	0.5%	12.3%

Additional structures:
SMILES	A647 autofl	A488 autofl	Resorufin fluor	AID923	TSHR agonist
CN(CC(=O)Nc1ccncc1)S(=O)(=O)c1ccc(Cl)cc1	1.09e-08	i	i	-1.2%	1.4%
COC(=O)c1ccc(C(NC(=O)OCc2ccccc2)/C(=C/[C@@H](C)C(=O)NCCc2c[nH]c3ccccc23)c2cccnc2)cc1 (some centres not stated)	·	·	·	1.8%	6.9%
N#Cc1ccccc1Sc1ccccc1C(=O)N1CCOCC1	·	·	·	-1.2%	-2.8%
CCOc1cccc(/C(O)=C2/C(=O)C(=O)N(Cc3ccco3)C2c2ccncc2)c1 (configuration not stated)	3.06e-08	i	i	-0.3%	0.2%[11.4 µM]
CN1C(=O)c2cccc3c(S(=O)(=O)Nc4ccccn4)ccc1c23	2.82e-08	i	i	16.3%	-0.7%
Nc1ccc(CCc2nc3ccccc3o2)cc1	4.42e-08	i	i	-0.5%	-12.1%
CCOc1ccc2[nH]c(=O)c(=O)[nH]c2c1	4.6e-09	i	i	2.4%	-14.2%
O=C(c1cccnc1)N1CCc2ccccc2C1	·	·	·	3.8%	1.7%
O=C(NCCCCNC(=O)c1c(F)c(F)c(F)c(F)c1F)c1c(F)c(F)c(F)c(F)c1F	1e-09	i	i	0.0%	0.7%
COc1ccc(-c2nn3c(COc4ccccc4)nnc3s2)cc1OC	2.22e-08	i	i	·	·
COC(=O)CC1=COC2OCC3=CC[C@@H]1C32 (some centres not stated)	·	·	·	2.2%[11.5 µM]	-3.8%[11.4 µM]
COc1ccc(OCC(O)CN2C(=O)c3ccccc3S2(=O)=O)cc1 (configuration not stated)	·	·	·	-0.5%	-4.2%
CCCC(=O)Nc1cc(OC)c(NC(=O)NC2CCCCC2)cc1OC	5.9e-09	i	i	1.6%	8.2%
Cc1csc(-c2coc3cc(O)cc(C)c3c2=O)n1	·	·	·	-0.5%	-18.3%
Cc1ccc2nc(-c3cccnc3)oc2c1	1e-09	i	i	-0.6%	0.9%
CCCCN(C(=O)Cn1nnc2ccccc21)C(C(=O)NCc1ccco1)c1ccncc1 (configuration not stated)	1.93e-08	i	i	1.4%	?
CC1CCC2(CC1)NC(=O)N(CC(=O)NC(=O)NC1CCCC1)C2=O (configuration not stated)	1.8e-09	i	i	1.8%	4.8%
FC(F)(F)c1ccccc1-c1nc(Nc2ccncc2)c2ccccc2n1	6.9e-09	i	i	0.5%	?
CCOC(=O)c1cnc(-n2nc(C)cc2C)nc1NCCc1ccccc1	2.22e-08	i	i	3.9%	?
Cc1cccn2c(=O)c3cc(C(=O)N4CCN(C(=O)c5ccco5)CC4)n(C)c3nc12	7.7e-09	i	i	17.5%	5.9%
CCOC(=O)c1c(C)c(C(=O)Nc2ccc(N(C)C)cc2)c(C)n1CC	1e-09	i	i	1.0%	21.6%[11.4 µM]
COc1ccc(OC)c(C(=O)CN2C(=O)NC(C)(c3ccccc3)C2=O)c1 (configuration not stated)	1.99e-08	i	i	0.0%	15.2%
NCCCCCCNS(=O)(=O)c1cccc2ccccc12	·	·	·	-0.5%	12.5%
O=C(Cn1c(=O)sc2ccccc21)Nc1ccc(S(=O)(=O)N2CCCC2)cc1	3.68e-08	i	i	0.7%	-8.1%
O=S1(=O)N=CN(Cc2cccc(F)c2)c2ccccc21	5e-09	i	i	1.0%	0.5%
O=C(CSC1=NCCN1)NC12CC3CC(CC(C3)C1)C2	1e-09	i	i	-0.7%	14.6%
O=C(NCC1CCCO1)c1nc2c(nnn2Cc2ccc(F)cc2)c(=O)[nH]1 (configuration not stated)	1e-09	i	i	1.6%	3.0%
CCOC(=O)c1sc2ncnc(NCC(c3cccs3)N(C)C)c2c1C (configuration not stated)	1.6e-09	i	i	1.9%	?
CSc1ncc(Cl)c(C(=O)NCc2ccc3c(c2)OCO3)n1	1e-09	i	i	1.1%	9.6%
CC(C)C[C@H](NC(=O)Nc1cccc(C(F)(F)F)c1)C(=O)O	1.75e-08	i	i	-0.3%	11.3%
CC1(C)CC(=O)C(C=Nc2ccc3[nH]ncc3c2)=C(O)C1	·	·	·	0.6%	1.8%
CCOc1ccccc1OCCCCN1CCCC1	7e-09	i	i	-3.1%	2.4%
COc1ccc2c(c1)c(C(=O)CN1CCN(C(=O)c3ccco3)CC1)c(C)n2C	7e-09	i	i	1.6%	-2.9%
O=S(=O)(c1ccc(NCCc2c[nH]c3ccccc23)nc1)N1CCOCC1	7.7e-09	i	i	-2.5%	-7.0%
CSC1CCCCC1(O)CSc1nc2ccccc2o1 (configuration not stated)	3.01e-08	i	i	0.0%	26.4%
CC(C)C(=O)N1CCc2cc(-c3csc(N)n3)ccc21	4.7e-09	i	i	-0.6%	-3.7%[11.4 µM]
Cc1noc(C)c1C(=O)Nc1ccc(Cl)cc1C(F)(F)F	1.5e-09	i	i	-2.1%	-9.8%
COc1nc(-c2ccccc2)ccc1-c1noc(C)n1	1.31e-08	i	i	-0.2%	1.0%
CCCC(CCC)C(=O)OC1C[C@H]2CC[C@@H](C1)[N+]2(C)C (some centres not stated)	1e-09	i	i	·	·
CC(C)COC(=O)CCNc1n[nH]c(=O)[nH]c1=O	1.5e-09	i	i	·	·
COc1ccc(CCn2c(SCC(=O)Nc3cc(C)on3)nc3ccccc3c2=O)cc1OC	1e-09	i	i	1.6%	·
CCCCC(=O)Nc1cc2nn(-c3ccc(OC)cc3)nc2cc1C	1e-09	i	i	3.2%	-2.0%
O=C1C(=O)N(Cc2ccco2)C(c2cccc(Cl)c2)/C1=C(\O)c1ccc2c(c1)OCCO2 (configuration not stated)	1e-09	i	i	-0.8%	27.1%
O=C(CCC1(C(=O)O)CCC(=O)NC1)NCc1ccccc1 (configuration not stated)	2.98e-08	i	i	-0.6%	-2.9%
O=c1[nH]c(CN2CCN(c3ccccc3Cl)CC2)nc2ccsc12	1e-09	i	i	0.5%	?
COC(=O)c1cc2ccsc2n1CC(=O)Nc1cc(C)cc(C)c1	1.98e-08	i	i	0.5%	?
OCC1OC(c2ccccc2)C=CC1Oc1ccc(C2CCCC2)cc1 (configuration not stated)	·	·	·	-3.6%[11.5 µM]	-0.5%[11.4 µM]
Cc1ccc(NC(=O)c2cc(-c3ccco3)on2)cc1	1.33e-08	i	i	-0.8%	0.7%
Cc1ccccc1-n1c(SC/C(O)=C(\C#N)c2nc3ccccc3[nH]2)nnc1-c1ccncc1	3.14e-08	i	i	7.1%	?
CCN1C(=O)CSc2ccc(C(=O)OC)cc21	·	·	·	-2.8%	4.2%

Other structures follow.
SMILES	A647 autofl	A488 autofl	Resorufin fluor	AID923	TSHR agonist
CCOc1cccc(-c2nnc(SCC(=O)Nc3cc(OC)cc(OC)c3)n2N)c1	1.98e-08	i	i	-0.1%	·
Cc1ccnc(NC(=O)CCC(=O)N(CC(=O)NC(C)(C)C)C2CCCC2)c1	2.11e-08	i	i	0.0%	0.6%
CCCCNc1nc(C)nc2c1nc(-c1ccccc1)n2C(C)CCCN(CC)CC (configuration not stated)	·	·	·	-3.6%	?
O=C1CCCN1CCC1CCN(C2CC(=O)N(c3ccc(F)cc3)C2=O)CC1 (configuration not stated)	1e-09	i	i	-1.5%	1.4%
CCc1ccc(-n2c(SCC(=O)Nc3cc(C)[nH]n3)nc3[nH]ncc3c2=O)cc1	3e-09	i	i	-0.4%	6.4%
CCC(C)NC(=O)N[C@@H](CCSC)C(=O)O (some centres not stated)	1.6e-09	i	i	0.3%	2.7%
COC(=O)NC(c1cccc(C)c1)[C@@]1(C(=O)OC)CCCC1=O (some centres not stated)	·	·	·	-2.8%[11.5 µM]	-5.1%[11.4 µM]
CCc1ccc(CCC(=O)Nc2nccs2)o1	3.05e-08	i	i	-2.3%	-7.6%
COCCCNC(=O)Cn1cc(C(C)=O)c2ccccc21	4.69e-08	i	i	-0.4%	?
COc1ccc(C(=O)CN2CCN(c3ccc(F)cc3)CC2)cc1OC	2.53e-08	i	i	-1.2%	5.5%
O=C(Nc1ccc2oc(-c3ccncc3)nc2c1)c1ccccc1F	7.2e-09	i	i	1.6%	-3.6%
CCCC1=C(C(=O)OCC)C(c2ccc(NC(C)=O)cc2)NC(=O)N1 (configuration not stated)	2.72e-08	i	i	-2.3%	-13.8%
CCOC(=O)CNC(=O)CNC(=O)c1ccc(OCC(C)C)cc1	5.53e-08	i	i	·	·
COCCn1c(SCC(=O)OC(C)C)nnc1-c1ccccc1	1.6e-09	i	i	2.5%	-1.5%
O=C(NCCc1nc2ccccc2[nH]1)c1ccc(F)cc1	2.04e-08	i	i	1.5%	6.9%

Assay outcomes (PubChem BioAssay)

A portion of the library. The share of hits here may be higher or lower than overall.
